Source: PubChem
KCNQ2 block – KCNQ2 potassium channel inhibitors, primary screen, cell-based, CHO-K1, FluxOR thallium flux, B-score (AID 2156); 20 min; stronger effect = lower value; only compounds with negative scores are shown here; some inactives read as strong as hits; B-score at 10 µM; hit rate 1.1% among 310,000;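 active = fluorescence ratio B-score at most minus 3 library SDs, with starting brightness B-score within 2 library SDs, cut at about -5.5 in these data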
Target sequence (O88943 whole entry, looked up): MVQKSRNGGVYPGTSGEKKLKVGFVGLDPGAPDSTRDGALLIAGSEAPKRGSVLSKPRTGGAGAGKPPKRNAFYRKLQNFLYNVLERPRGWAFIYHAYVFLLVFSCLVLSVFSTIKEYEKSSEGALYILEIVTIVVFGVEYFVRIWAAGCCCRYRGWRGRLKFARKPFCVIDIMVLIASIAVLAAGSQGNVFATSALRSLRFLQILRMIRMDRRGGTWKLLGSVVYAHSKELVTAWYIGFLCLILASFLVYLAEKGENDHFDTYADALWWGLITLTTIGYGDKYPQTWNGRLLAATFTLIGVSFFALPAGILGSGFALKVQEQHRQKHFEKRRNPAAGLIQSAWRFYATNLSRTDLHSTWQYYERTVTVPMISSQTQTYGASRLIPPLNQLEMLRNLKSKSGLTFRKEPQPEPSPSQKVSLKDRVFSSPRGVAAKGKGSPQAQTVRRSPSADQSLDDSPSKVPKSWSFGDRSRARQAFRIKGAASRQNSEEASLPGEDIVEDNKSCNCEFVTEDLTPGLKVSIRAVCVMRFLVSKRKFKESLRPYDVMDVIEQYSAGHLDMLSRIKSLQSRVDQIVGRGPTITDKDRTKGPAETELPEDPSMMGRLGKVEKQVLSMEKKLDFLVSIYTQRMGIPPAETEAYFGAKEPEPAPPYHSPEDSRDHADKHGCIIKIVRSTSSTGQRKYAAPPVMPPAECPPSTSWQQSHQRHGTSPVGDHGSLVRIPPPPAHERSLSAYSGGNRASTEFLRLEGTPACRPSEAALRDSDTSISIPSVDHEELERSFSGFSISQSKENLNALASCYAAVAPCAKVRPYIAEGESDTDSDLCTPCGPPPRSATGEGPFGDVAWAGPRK
KCNQ2 block baseline – recorded beside KCNQ2 block, whose call it bears; B-score; measured here: initial fluorescence intensity artifact check;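 brightness before thallium and not channel activity; 0 = typical well and far values either way flag optical interference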
* = called active by the depositor; i = inactive.

Sample of the layout:
mol,KCNQ2 block,KCNQ2 block baseline
C=C(C)[C@@H]1CC[C@]2(C(=O)O)CC[C@]3(C)[C@H](CC[C@@H]4[C@@]5(C)CC[C@H](O)C(C)(C)[C@@H]5CC[C@]43C)[C@@H]12,i,0.96
CCN(CC)CCn1c2c(c(SCC(=O)NCc3ccccc3)nc1=O)CCC2,i,0.23
Cc1cc(C)c(NC(=O)c2ccc(CNS(=O)(=O)c3cc(C(F)(F)F)ccc3Cl)cc2)c(C)c1,i,-0.47
Cc1ccc(S(=O)(=O)NCC(=O)N(CC(=O)NCc2ccco2)Cc2ccco2)cc1,i,0.04

The list itself (from the top)
mol,KCNQ2 block,KCNQ2 block baseline
C=C(C)[C@@H]1CC[C@]2(C(=O)O)CC[C@]3(C)[C@H](CC[C@@H]4[C@@]5(C)CC[C@H](O)C(C)(C)[C@@H]5CC[C@]43C)[C@@H]12,i,0.96
CCN(CC)CCn1c2c(c(SCC(=O)NCc3ccccc3)nc1=O)CCC2,i,0.23
Cc1cc(C)c(NC(=O)c2ccc(CNS(=O)(=O)c3cc(C(F)(F)F)ccc3Cl)cc2)c(C)c1,i,-0.47
Cc1ccc(S(=O)(=O)NCC(=O)N(CC(=O)NCc2ccco2)Cc2ccco2)cc1,i,0.04
c1ccc2c(c1)COC(CN1CCCCC1)OC2,i,0.41
CCc1cc2c(=O)c(-c3nc4ccccc4n3C)coc2c(CN2CCN(C)CC2)c1O,i,2.9
Fc1ccc2[nH]c3c(NCCN4CCOCC4)ncnc3c2c1,i,1.9
CCN(CC)S(=O)(=O)c1ccc(-c2cn3cc(Cl)ccc3n2)cc1,i,-0.6
COc1ccc(C2=CC3=C(Br)C(=O)C(C)(OC(=O)c4cccs4)C(=O)C3=CO2)cc1 (stereo not given),i,0.02
CCOc1cc(C(=O)N(C)Cc2cc3cc(OC)ccc3[nH]c2=O)cc(OCC)c1OCC,i,-0.78
CCO[C@@H]1OC(C(=O)N2CCCCCCC2)=C[C@H](c2csc3ccccc23)[C@H]1CCCO,i,-0.43
O=C(NCCc1cccs1)C1CC(c2cccc(F)c2)=NO1 (stereo not given),i,-0.23
O=C1CC(C(=O)N(c2cccc(F)c2)C(C(=O)NC2CCCC2)c2ccccn2)CS1 (stereo not given),i,-2.1
COc1ccc(C(=O)COC(=O)CCN=C2NS(=O)(=O)c3ccccc32)c(OC)c1,i,-2
CCOc1ccc(CN2CCN(C(=O)c3ccccc3)CC2)cc1,i,-0.7
CCN(C(=O)COC(=O)c1cc(S(=O)(=O)N2CCc3ccccc32)ccc1OC)C1CCS(=O)(=O)C1 (stereo not given),i,-0.26
CCOCCOC(=O)C1=C(C)N(C)C(=O)NC1c1ccccc1F (stereo not given),i,1.3
O=C(CC1c2ccccc2Oc2ccccc21)Nc1ccccc1C(F)(F)F,i,-0.59
COc1cccc(OC)c1Oc1ccc(C(F)(F)F)cn1,i,0.04
COC(=O)c1ccccc1CSc1nsc(/C=C/N(C)C)c1C#N,i,0.45
O=c1c(-c2ccc(F)cc2)[n+]([O-])c2ccccc2n1OCc1ccccn1,i,-0.79
COC(=O)c1scc(C)c1NC(=O)C1CCCCC1,i,0.46
CC(=O)Nc1c(Cl)cnn(-c2ccccc2)c1=O,i,-0.03
O=C1OC(c2ccccc2)=C/C1=C/N1CCCCC1,i,0.02
Nc1nonc1C(=O)N/N=C/c1cc2c(cc1Br)OCO2,i,1.1
CSc1ccc(/C=C(/Sc2nnc(-c3ccccc3)o2)C(=O)O)cc1,i,0.63
CN(C(=O)COC(=O)CCc1c[nH]c2ccccc12)C(c1ccccc1)c1ccccc1,-5.9*,-0.19*
CCOC(=O)/C(=N\Nc1cc(Cl)ccc1Cl)N1CCN(CC)CC1,i,0.16
Cc1cc(NC(=O)c2cc(-c3ccccc3C)nc3ccccc23)no1,i,1.3
CCn1c2ccccc2c2cc(NC(=O)c3coc(=O)c(Br)c3)ccc21,i,4

As entered above.
C=C(C)[C@@H]1CC[C@]2(C(=O)O)CC[C@]3(C)[C@H](CC[C@@H]4[C@@]5(C)CC[C@H](O)C(C)(C)[C@@H]5CC[C@]43C)[C@@H]12 | KCNQ2 block baseline: 0.96
CCN(CC)S(=O)(=O)c1ccc(-c2cn3cc(Cl)ccc3n2)cc1 | KCNQ2 block baseline: -0.6
O=C1CC(C(=O)N(c2cccc(F)c2)C(C(=O)NC2CCCC2)c2ccccn2)CS1 (stereo not given) | KCNQ2 block baseline: -2.1
CCOCCOC(=O)C1=C(C)N(C)C(=O)NC1c1ccccc1F (stereo not given) | KCNQ2 block baseline: 1.3

The listing continues:
mol,KCNQ2 block,KCNQ2 block baseline
Cc1cc(=O)oc2cc(OCC(=O)NCc3cccnc3)ccc12,i,-0.75
C[n+]1ccc(/C=N/Nc2nc(Cl)c(C#N)c(Cl)c2Cl)cc1,i,-0.33
COc1ccccc1OCC(=O)NCc1n[nH]c(=O)c2ccccc12,i,-1.2
O=[N+]([O-])c1cccc(/C=N/NC2=NCCCCC2)c1,i,0.37
COc1ccccc1C1(CC(=O)O)CCOC(C(C)C)C1 (stereo not given),i,-0.18
CC(NC(=O)CCn1ccc2cc(S(=O)(=O)N3CCCC3)ccc21)c1ccccc1 (stereo not given),i,1.1
Cc1ccc(CCNS(=O)(=O)c2cc3c(cc2C)n(C)c(=O)c(=O)n3C)cc1,i,0.42
C=CCn1c(CSCc2ccc(Cl)cc2)nnc1SCC(=O)NCc1ccccc1,-6.5*,0.49*
CNC(=O)COc1ccc(-c2nn(C)c(=O)c3ccccc23)cc1,i,-1.7
COc1cc([N+](=O)[O-])ccc1NC(=O)CCCOc1cc(C)ccc1C,i,-0.03
COc1cccc(CN(C)C(=O)c2ccc(Oc3ccccc3)cc2)c1OC,i,-0.57
O=C(O)c1ccc(N2C(=O)CC(N3CCN(c4ccc(Cl)cc4)CC3)C2=O)cc1 (stereo not given),i,0.06
COCCOCC(O)CN1CCN(c2ccc(C)cc2)CC1 (stereo not given),i,-0.76
COc1ccc(S(=O)(=O)N(C)CC(=O)N2CCCC2)cc1Cl,i,0.08
Cc1ccccc1C(=O)N/N=C/c1cccc2ccccc12,i,0.55
CC(C)N(CCc1ccncc1)C(=S)Nc1ccc(F)c(Cl)c1,i,-1
CCOC(=O)c1cnc2c(C)cccc2c1NCCc1ccc(OC)c(OC)c1,i,-1.1
CC1(C(=O)NC2CCCCCCC2)CCC(=O)N1CCN1CCOCC1 (stereo not given),i,0.28
CN(C)c1cc(-c2ccc(Cl)c(Cl)c2)oc(=O)c1Cl,i,0.53
Cc1cc(C(=O)OCC(=O)Nc2ccc(F)cc2F)c(C)o1,i,-0.4
O=C(COC(=O)c1ccc(NS(=O)(=O)c2cccs2)cc1)NCc1ccco1,i,1.5
CCCN(CCC)CCCNC(=O)c1cc2c(=O)n(CC)c3ccccc3c2s1,i,-0.85
O=C1C=C(c2ccccc2)C[C@H](c2cccs2)[C@H]1n1cnc([N+](=O)[O-])c1,i,-1.4
c1ccc(-c2onc(-c3ccco3)c2-c2ccc3c(c2)OCO3)cc1,-5.9*,0.13*
Cc1ccc(C)c(N2CN(CCC3=CCCCC3)CNC2=S)c1,i,-0.92
Cc1ccc2nc(N/N=C/c3ccccc3F)nc(-c3ccccc3)c2c1,i,0.53
Cc1c(Cl)c(=O)n2c(=O)c(Cl)c(C)n12,i,4.8
N#C/C(=C\Nc1ccc(Cl)cn1)S(=O)(=O)c1ccccc1,i,-2.9
O=C(COC(=O)Cn1cnc2ccccc21)Nc1ccc2c(c1)C(=O)c1ccccc1C2=O,i,0.06
CC(=O)Nc1ccc(-c2nnc(SCC(=O)Nc3ccc4c(c3)oc3ccccc34)n2C)cc1,i,0.93

(more compounds)
Every second line gives: KCNQ2 block	KCNQ2 block baseline
CC1(C)C(=O)Nc2ccccc2N1C(=O)CSc1nc(-c2ccccc2)cs1
  i	0.49
CN(CC(=O)NCc1cccnc1)S(=O)(=O)c1ccccc1
  i	2.1
O=C1CC2(CCN(C(=O)c3cccc(Br)c3)CC2)Oc2ccccc21
  i	-0.11
COc1ccc2c(C)cc(SCC(=O)c3ccc4c(c3)OCO4)nc2c1
  i	1.2
CCOc1ccccc1N(CC(=O)Nc1ccc2c(c1)OCO2)S(C)(=O)=O
  i	-0.6
O=C(Cc1cccs1)N(c1ccc(F)cc1)C1(C(=O)NC2CCCCC2)CCCC1
  i	0.68
COc1ccc(C2C(CN3CCOCC3)C(=O)N2c2ccccc2)cc1 (stereo not given)
  i	0.7
Cc1ccc(NC2=C/C(=N/S(=O)(=O)c3cccs3)c3ccccc3C2=O)cc1
  i	1.2
O=C(NCCc1nc2ccccc2[nH]1)/C(=C/c1ccco1)NC(=O)c1ccccc1Br
  i	-2.4
Cc1ccc(CN2CCN(/N=C/c3sccc3C)CC2)c(C)c1
  i	-0.76
CC1c2ccsc2CCN1S(=O)(=O)c1cccs1 (stereo not given)
  i	-0.6
COc1ccc(C([O-])=Nc2ccc[n+](-c3nc4ccccc4nc3NS(=O)(=O)c3ccccc3)c2)cc1
  i	1.3
Cc1ccccc1CN(C)CC(=O)Nc1c(C)cccc1C(C)C
  i	0.45
O=C(Nc1nnc(S(=O)(=O)N2CCCC2)s1)c1cccc([N+](=O)[O-])c1
  i	-1.1
S=C(Nc1ccc(Cl)cc1)Nc1cccc2cnccc12
  i	0.46
CCCCNS(=O)(=O)c1ccc2nc(-c3cccnc3)cc(C(=O)NCC(OC)OC)c2c1
  i	-0.12
Cc1ccccc1Nc1cc(C(=O)NCc2ccco2)c2ccccc2n1
  i	0.03
O=C(Nc1cccc(F)c1)c1cccnc1NCCc1ccccc1
  i	0.32
C1=C(c2ccccc2)Nc2ccccc2N=C1c1ccccc1
  i	-0.87
C=CCCCCCCCCc1nc(SCC(=O)O)n[nH]1
  i	1.8
Cn1c(CS/C(N)=N/N=C/c2ccccc2)c(Br)c(=O)n1-c1ccccc1
  i	-0.03
COc1ccc(-c2cc(C(F)(F)F)c3c(N)c(C(=O)NCCSC)sc3n2)cc1
  i	3.4
O=C(Nc1ccccc1)C1=C[C@@H](c2ccc(C(F)(F)F)cc2)C[C@@H](OCCCCO)O1
  i	-0.94
COc1ccc(C(O)Cc2nc3ccccc3n2C)cc1OC (stereo not given)
  i	-3.1
CC(=O)N[C@@H](Cc1c[nH]c2ccccc12)C(=O)NC1CC1
  i	-0.04
COc1ccc2cc3cc(C(=O)N4CCN(Cc5ccc6c(c5)OCO6)CC4)oc3nc2c1
  i	-1
Cc1cccc(Cc2nnc(CCC(=O)N(C)CCc3ccccc3)o2)c1
  i	0.18
Fc1ccc(C2C3=C(Nc4ncnn42)c2ccccc2OC3c2ccncc2)cc1 (stereo not given)
  i	1.1
CC(NC(=O)C1C2C=CC(C2)C1C(=O)O)c1ccccc1 (stereo not given)
  i	1.6
COC(=O)[C@H](CC(C)C)NC(=O)NC1CCCCC1C (stereo not given in full)
  i	0.95
Cc1cc(-c2ccc(C)c(S(=O)(=O)NCCN3CCC(C)CC3)c2)on1
  i	-1
CN(C)CCNC(=O)/C=C/c1cn(-c2ccccc2)nc1-c1cc2ccccc2oc1=O
  i	-0.01
CCCCn1c(N)c(N(CC(C)C)C(=O)c2ccco2)c(=O)[nH]c1=O
  i	-0.12
Cc1cc(=O)oc2c(CN3CCN(CCO)CC3)c(O)ccc12
  i	0.31
CC(=O)O[C@H]1C[C@@]2(C)[C@@H](C[C@@H](O)[C@H]3[C@@]4(C)CC[C@@H](O)[C@@H](C)C4CC[C@@]32C)/C1=C(\CCC=C(C)C)C(=O)O (stereo not given in full)
  i	0.91
CCc1cc(C(=O)c2ccc(C)cc2)c(NC(=O)CCl)s1
  i	-0.75
COc1ccc(C2=CC(=O)CC(c3ccc(OC)cc3)C2)cc1 (stereo not given)
  i	1.1
COc1ccc(NC(=O)CN(C)S(=O)(=O)c2cccc3nsnc23)cc1OC
  i	-0.01
COc1cc(NC(=O)c2c(F)c(F)c(F)c(F)c2F)c(OC)cc1Cl
  i	-0.52
CCOc1ccc(-c2nnn(CC(=O)NCc3ccc(F)cc3)n2)cc1OCC
  i	1.4

Compound profiles (already shown):
Shown for COc1ccc(C2=CC(=O)CC(c3ccc(OC)cc3)C2)cc1 (stereo not given) : KCNQ2 block: i; KCNQ2 block baseline: 1.1
Shown for COc1ccc(C(O)Cc2nc3ccccc3n2C)cc1OC (stereo not given) : KCNQ2 block: i; KCNQ2 block baseline: -3.1

(cont.)
Every second line gives: KCNQ2 block	KCNQ2 block baseline
CC1Oc2ccccc2N(Cc2ccccc2Cl)C1=O (stereo not given)
  i	-1.1
Cc1ccc(/C=N/c2sc(Cc3ccccc3)c(C)c2C(N)=O)o1
  i	-1.3
CC(C)Oc1cccc(C(=O)C2CCCN(Cc3ccc(Oc4ncccn4)cc3)C2)c1 (stereo not given)
  -7.8*	-0.25*
O=C1/C(=C/c2cccs2)Sc2ccccc21
  i	1.5
CC1CC(C)CN(C(=O)COC(=O)c2cc3ccccc3cc2O)C1 (stereo not given)
  i	-1.8
CSc1ccccc1OCc1cc(C(=O)NCc2ccc(C)s2)no1
  i	0.26
COC(=O)[C@H](CC(C)C)NC(=O)c1cc2c(cn1)[nH]c1ccccc12
  i	-0.05
COC(=O)C1=C(Nc2ccc(C)cc2)C=C(C)C(C(=O)OC)C1c1cccc(OC)c1 (stereo not given)
  i	-0.48
COc1cnc(-c2ccccn2)nc1N(C)c1ccccc1
  i	-0.81
Cc1c(C(=O)OCC(=O)N(C)c2ccccc2)cccc1[N+](=O)[O-]
  i	0.26
CC1CC(C)CN(C(=O)C2CCN(S(=O)(=O)c3cccs3)CC2)C1 (stereo not given)
  i	0.53
O=C(CSc1ccc(F)cc1)NCCc1ccc(Cl)cc1
  i	0.09
COC(=O)c1ccc(NC(=O)CCOc2ccccc2)cc1
  i	0.11
CCOC(=O)N1CCC(=NNC(=O)Cn2ccc(C(F)(F)F)n2)CC1
  i	0.41
O=C(CN1CCCCC1)Nc1ccc(S(=O)(=O)N2CCOCC2)cc1
  i	-0.05
Cc1ccc(C(=O)Nc2nccs2)cc1
  i	-1.6
c1coc(CN2CN=C(Nc3nc4ccccc4s3)NC2)c1
  i	0.01

An excerpt, so the mix of outcomes need not match the whole.
